HEK cytotox – kills HEK 293 cells; 94,000 compounds, 6.6% hits; HEK 293 viability, ATP luminescence (CellTiter-Glo), 48-72 h; Potency, µM (titrated, usually from 115 µM), without a hit: at the highest dose activity change, negative = cytotoxicity, hits mostly inhibitors; AID 1345083; further: nearly all actives have a fitted effect of over 60% in size
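CellTiter-Glo luminescence (cellular ATP) was read after 48 or 72 hr of compound exposure at 37 degree Celsius. Cells were HEK 293 plated at 250 cells/well.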
NIH3T3 tox – cytotoxic compounds in NIH 3T3 cells. NIH 3T3 viability, CellTiter-Glo ATP luminescence, 48-72 h. Potency, µM (series often up to 96.7 µM), without a hit: at the highest dose activity change, negative = cytotoxicity, usual class: inhibitors. 94,000 compounds, 4.3% hits; further: nearly all actives have a fitted effect of over 55% in size
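First NIH 3T3 cells are plated at 400 cells/well; next compound is pinned in; then plates incubate 48 or 72 hr at 37 °C; finally CellTiter-Glo is added and luminescence read after 10 min.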
HEK293 viab – reduces viability of HEK-293 SNCA reporter cells. 150,000 compounds, 0.12% hits. Potency, µM (highest dose often 57.1 µM), for the others: at the top dose activity change, negative = cytotoxicity, hits mostly cytotoxic. HEK-293-SNCA-luc viability, GF-AFC fluorescence, 24 h;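 further: 0% = DMSO-treated cells and -100% = medium-only wells without cells; nearly all actives have a fitted effect of over 30% in size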
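Cytotoxicity counterscreen: after 24 h compound treatment of genome-edited SNCA-luciferase HEK-293 cells, live-cell protease substrate GF-AFC read by fluorescence after 30 min; activity scaled between DMSO (0%) and medium-only (-100%), curves Hill-fitted.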
SNCA expr inh – inhibitors of alpha-synuclein (SNCA) gene expression | Potency, µM (highest dose often 57.2 µM), without a hit: top-dose activity change, negative = inhibition, hits mostly inhibitors | AID 1671194 | 140,000 compounds, 0.17% hits | HEK-293 SNCA-luciferase knock-in, luminescence, 24 h;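 further: plate controls were DMSO cells for no effect and cell-free wells for full effect; nearly all actives have a fitted effect of over 45% in size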
FLuc inh – Photinus pyralis luciferase inhibition. P08659. purified P. pyralis luciferase, luminescence, biochemical. Potency, µM (titrated, usually from 115 µM), inactives show top-dose activity change, negative = inhibition, actives largely listed as inhibitors. 76,000 compounds, 2.5% hits. AID 1347043; further: nearly all actives have a fitted effect of over 65% in size
Target sequence (P08659 whole entry, looked up): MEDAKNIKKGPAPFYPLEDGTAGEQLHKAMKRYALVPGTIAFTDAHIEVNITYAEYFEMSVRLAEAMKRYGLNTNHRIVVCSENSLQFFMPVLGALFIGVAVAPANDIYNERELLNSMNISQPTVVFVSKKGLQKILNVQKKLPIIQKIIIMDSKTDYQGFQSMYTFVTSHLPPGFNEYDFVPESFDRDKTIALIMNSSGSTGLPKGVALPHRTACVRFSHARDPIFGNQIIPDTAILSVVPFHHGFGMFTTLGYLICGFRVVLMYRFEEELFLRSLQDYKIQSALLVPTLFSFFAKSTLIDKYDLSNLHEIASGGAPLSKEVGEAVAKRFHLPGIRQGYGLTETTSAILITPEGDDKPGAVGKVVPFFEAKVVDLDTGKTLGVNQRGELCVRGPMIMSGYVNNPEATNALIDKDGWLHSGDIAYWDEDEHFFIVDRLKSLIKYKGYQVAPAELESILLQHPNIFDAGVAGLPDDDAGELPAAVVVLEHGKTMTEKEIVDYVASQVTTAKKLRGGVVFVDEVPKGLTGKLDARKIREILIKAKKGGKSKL
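Cell-free enzyme assay, 10nM P. pyralis luciferase, luciferin and ATP each at 10uM. Inhibition profiled over a 6-point titration, read as luminescence.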
GPT2 inh – inhibitors of human GPT2 alanine aminotransferase; Recombinant GPT2, coupled pyruvate oxidase/HRP Amplex Red fluorescence; Q8TD30; Potency, µM (series often up to 57.7 µM), inactives show at the highest dose activity change, negative = inhibition, actives largely listed as inhibitors; 100,000 compounds, 0.25% hits; further: nearly all actives have a fitted effect of over 60% in size; many of its hits are not listed in these tables
Target sequence (Q8TD30 whole entry, looked up): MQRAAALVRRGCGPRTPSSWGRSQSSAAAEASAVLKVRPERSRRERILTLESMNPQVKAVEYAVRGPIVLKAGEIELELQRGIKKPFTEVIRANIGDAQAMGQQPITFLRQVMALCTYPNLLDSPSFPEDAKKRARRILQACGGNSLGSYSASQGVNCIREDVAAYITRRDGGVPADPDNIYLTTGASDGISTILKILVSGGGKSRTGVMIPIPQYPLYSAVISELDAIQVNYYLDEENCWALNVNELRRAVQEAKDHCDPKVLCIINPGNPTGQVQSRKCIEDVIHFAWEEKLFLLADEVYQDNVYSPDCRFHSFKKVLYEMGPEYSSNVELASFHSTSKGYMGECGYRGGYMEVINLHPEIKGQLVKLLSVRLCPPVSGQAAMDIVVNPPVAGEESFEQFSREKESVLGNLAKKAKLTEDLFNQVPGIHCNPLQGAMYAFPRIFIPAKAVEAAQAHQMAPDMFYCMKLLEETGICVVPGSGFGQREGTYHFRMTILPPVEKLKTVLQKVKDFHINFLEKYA
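Fluorescence read-out: pyruvate from GPT2 turnover coupled to pyruvate oxidase, HRP and Amplex Red (0.2mM ThPP, 0.2U/mL PO and HRP, 50uM Amplex final). Substrates 250uM a-KG, 2mM L-alanine; enzyme 10ng/uL; 30 min RT.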
* marks the source's active call; other numbers are inactive results; i = inactive; ? = inconclusive; nt = not tested or not shown; [ ] = dose if it differs, or a comment. The call rests on the fitted dose curve; in most records, active means well fitted curve in the direction sought with a large enough effect; inconclusive means small, poorly fitted or top-dose-only effect, or another doubt; inactive means no such curve, though single readings can be large; an effect the other way counts as inactive or inconclusive. Unless noted, on the % scale 0 is the no-effect control and ±100 the full control effect; potency means the concentration at half of the fitted maximal effect.

Every second line gives: HEK cytotox, NIH3T3 tox, HEK293 viab, SNCA expr inh, FLuc inh, GPT2 inh
> O=C1Nc2ccccc2C12CN(Cc1cncs1)C2
→ ?, -12%[138 µM], -1%[87.6 µM], 3%[87.6 µM], nt, 2%[88.5 µM]
> Cc1ccc(NC(=O)C(CC(C)C)N2Cc3ccccc3C2=O)cc1F (centres undefined)
→ nt, nt, -9%, 0%, nt, nt
> Cc1cc2c(cc1S(=O)(=O)N(CCN(C)C)Cc1ccccc1)OCC(=O)N2
→ nt, nt, -9%, ?, nt, nt
> COc1ccc(CCNc2nc3ccc(C)cc3n3cnnc23)cc1OC
→ nt, nt, -11%, 10%, nt, nt
> O=C(Nc1cccc(Cl)c1)c1cnc2c(c1)N(Cc1ccccc1)CCC2
→ ?, ?, ?, -21%[87.6 µM], -12%[172 µM], -14%[88.5 µM]
> CCCN(C(=O)Nc1cn(CC(C)C)c(=O)c2ccccc12)c1ccc(F)cc1
→ nt, nt, 6%, 5%, nt, nt
> COc1cc(NC(=O)C(CC(C)C)N2Cc3ccccc3C2=O)cc(OC)c1 (centres undefined)
→ nt, nt, -3%, 12%, nt, nt
> COCCNC(=O)C(=O)NCC(c1cccnc1)N1CCN(c2ccccc2OC)CC1 (centres undefined)
→ nt, nt, 13%, 18%, nt, nt
> CC(=O)N1CCN(C(=O)C(=O)Nc2c3c(nn2-c2ccc(Cl)cc2)CSC3)CC1
→ nt, nt, 3%, 13%, nt, nt
> COc1cc(C2NC(=O)N(C)C3=C2C(=O)N(c2cccc(Cl)c2)C3)ccc1O (centres undefined)
→ nt, nt, ?, 8%, nt, nt
> COc1ccccc1-c1nc(C(=O)NCc2ccc3c(c2)OCO3)n2ccccc12
→ -8%, ?, 6%, 20%, -7%, -1%
> O=C(c1cnc2c(c1)N(Cc1ccccc1)CCC2)N1CC[S+](=O)([O-])CC1
→ -29%[172 µM], ?, 2%[87.6 µM], 15%[87.6 µM], 12%[172 µM], 1%[88.5 µM]
> COc1ccc(CCNc2nc(-c3ccc(OC)c(OC)c3)cc(C(F)(F)F)n2)cc1OC
→ nt, nt, -18%, -17%, nt, nt
> CN1CCOc2c(C(=O)NCCN3CCNC3=O)cc(-c3cccnc3)cc21
→ ?, ?, 1%[87.6 µM], -15%[87.6 µM], -11%[172 µM], i
> O=C(CSc1oc(-c2ccccc2)nc1S(=O)(=O)c1ccc(Cl)cc1)Nc1ccc(F)cc1
→ nt, nt, 14%, 9%, nt, nt
> CC(Nc1ncnc2c1cnn2-c1cccc(Cl)c1)c1ccccc1 (centres undefined)
→ nt, nt, -16%, 118%[activator], nt, nt
> Cc1ccccc1OCc1nc(C2CN(C(=O)COc3ccc(F)cc3)C2)no1
→ ?, ?, 0%, 1%, -13%, i
> c1ccc(Oc2ccccc2-c2cc(-c3cn[nH]c3)c3cncn3c2)cc1
→ ?, ?, -12%[87.6 µM], ?, -5%[172 µM], 5%[88.5 µM]
> Cc1ncc(-c2nc3cc(S(=O)(=O)NC(C)C)ccc3n2C(C)C)cn1
→ 1%, -6%, -6%, 9%, -7%, -15%
> CC(C)NC(=O)c1cnc2n[nH]c(-c3ccccc3)c2n1
→ ?, -28%[174 µM], -4%[87.6 µM], ?, -16%[230 µM], 3%[88.5 µM]
> CCCN(CCC)CCNC(=O)c1cc2c(-c3ccccc3F)nn(C)c2s1
→ nt, nt, -6%, ?, nt, nt
> CCCCOc1ccc(C(=O)NCCc2csc(-c3cccc(F)c3)n2)cc1
→ nt, nt, 8%, -14%, nt, nt
> COc1cccc(CNc2nccn(-c3cc(C)cc(C)c3)c2=O)c1
→ nt, nt, -17%, -4%, nt, nt
> CN(C)CCN(Cc1ccco1)S(=O)(=O)c1cc2c(cc1Cl)NC(=O)CO2
→ nt, nt, -7%, 9%, nt, nt
> COc1ccc(C2NC(=O)N(C)C3=C2C(=O)N(c2cccc(Cl)c2)C3)cc1 (centres undefined)
→ nt, nt, ?, 0%, nt, nt
> CCc1ccc(C(=O)N2CCC(c3nc(-c4ccc(S(=O)(=O)N5CCCC5)cc4)no3)CC2)cc1
→ nt, nt, 7%, -5%, nt, nt
> CC(C)NC(=O)CCSc1nc(-c2ccc3c(c2)OCO3)cc(C(F)(F)F)n1
→ nt, nt, -8%, 7%, nt, nt
> Cc1ccc(N2C(=O)C(CC(=O)Nc3ccc(F)cc3)N(Cc3ccc4c(c3)OCO4)C2=O)cc1 (centres undefined)
→ nt, nt, 8%, -3%, nt, nt
> COc1ccc(NC(=O)CCc2nnc3n(CC(C)C)c(=O)c4ccccc4n23)cc1OC
→ nt, nt, 2%, -10%, nt, nt
> CCCCN(C)CCNC(=O)c1cc(-c2ccc(Cl)s2)nc2ccccc12
→ nt, nt, 3%, 1%, nt, nt
> COCCNC(=O)c1cnc2c(c1)N(Cc1ccccc1)CCC2
→ ?, ?, 5%[87.6 µM], 14%[87.6 µM], 8%[172 µM], i
> Cc1ccc(CNC(=O)C(C)n2c(=O)cc(-c3ccccc3)c3c(C)nn(C)c32)cc1 (centres undefined)
→ nt, nt, 8%, 7%, nt, nt
> CN(C)C(=O)c1nc(-c2ccc(Cl)cc2Cl)c2ccccn12
→ ?, ?, -6%, 9%, nt, i
> CC(C)(C)C(=O)NCC(c1ccc2c(c1)OCO2)N1CCOCC1 (centres undefined)
→ nt, nt, 13%, 4%, nt, nt
> CC(C)(C)c1ccc(C(=O)Nc2ccc3c(c2)CCCN3C(=O)c2cccs2)cc1
→ nt, nt, -14%, 14%, nt, nt
> Cn1nc(-c2ccccc2F)c2cc(C(=O)N3CCN(c4ccc(F)cc4)CC3)sc21
→ nt, nt, 7%, -10%, nt, nt
> O=C(c1nc(-c2cc(Cl)cc(Cl)c2)c2ccccn12)N1CCOCC1
→ ?, -25%, 1%, -2%, -8%, i
> COc1ccc(CNC(=O)Nc2cn(CC(C)C)c(=O)c3ccccc23)cc1
→ nt, nt, 1%, 6%, nt, nt
> O=C(NCC1(c2ccccc2)CCCC1)C(=O)Nc1cccc(C(F)(F)F)c1
→ nt, nt, -1%, -6%, nt, nt
> O=C(O)c1ccc2nc(-c3cc4cccc(O)c4oc3=O)[nH]c2c1
→ nt, nt, -5%, ?, nt, nt
> Cc1ccc(CSc2ccc(-c3cccs3)nn2)cc1
→ nt, nt, -11%, 51%[activator], nt, nt
> CC(=O)N1c2ccc(S(=O)(=O)NCC3CCC(C(=O)Nc4ccc(C)c(C)c4)CC3)cc2CC1C (centres undefined)
→ nt, nt, -1%, 37%, nt, nt
> O=C(NNc1ncnc2c1cnn2-c1ccccc1)c1cccc(Cl)c1
→ nt, nt, -4%, 4%, nt, nt
> COc1ccc(NC(=O)Cn2nc(SC)c(S(=O)(=O)c3ccc(C)cc3)c2N)cc1OC
→ nt, nt, -13%, -6%, nt, nt
> CCOc1ccc(CC(=O)N2C[C@@H](COC)[C@H](c3nc(C)no3)C2)cc1
→ 4%, -15%, -6%, -2%, -8%, i
> COc1ccccc1N1CCN(C(CNC(=O)C(=O)NCCN(C)C)c2cccnc2)CC1 (centres undefined)
→ nt, nt, -1%, -3%, nt, nt
> CCC(C(=O)Nc1ccccc1)n1nc(-c2cc(C)ccc2C)ccc1=O (centres undefined)
→ nt, nt, -12%, 10%, nt, nt
> CCN(CC)C(=O)C1=CC(c2ccc3c(c2)OCO3)=NS(=O)(=O)N1C
→ nt, nt, -11%, 11%, nt, nt
> Cc1cc(-n2c(SCc3ccccc3F)nc3[nH]ncc3c2=O)ccc1Cl
→ nt, nt, -15%, 173%[activator], nt, nt
> CCOc1ccc(NC(=O)CCSc2nc(-c3ccc4c(c3)OCO4)cc(C(F)(F)F)n2)cc1
→ nt, nt, 5%, 14%, nt, nt
> COc1ccccc1-c1[nH]nc2ncc(-c3cccc(CO)c3)nc12
→ ?, ?, -4%[87.6 µM], 40%[activator][87.6 µM], ?, 2%[88.5 µM]
> O=C(NCc1ccc2c(c1)OCO2)c1nc(-c2cc(Cl)cc(Cl)c2)c2ccccn12
→ -4%, 3%, 2%, 24%, 3%, i
> COc1ccc(S(=O)(=O)c2c(SC)nn(CC(=O)Nc3ccc(C)c(Cl)c3)c2N)cc1
→ nt, nt, -20%, ?, nt, nt
> CN(C)CCNC(=O)c1cnc2c(c1)N(Cc1ccccc1)CCC2
→ ?, ?, 10%[87.6 µM], -18%[87.6 µM], -4%[172 µM], -8%[88.5 µM]
> O=C(c1ccncc1)N1CCC(n2c(=O)[nH]c3ccccc32)CC1
→ -42%[172 µM], -37%[138 µM], 1%[87.6 µM], 11%[87.6 µM], nt, i
> COc1ccc(Cl)cc1NC(=O)C(C)n1c(=O)cc(C(F)(F)F)c2c(C)nn(C)c21 (centres undefined)
→ nt, nt, 4%, ?, nt, nt
> CCS(=O)(=O)N1C[C@@H](COC)[C@H](c2nc(C)no2)C1
→ i, i, 3%, 4%, -6%, -1%
> CN(C)Cc1ccc(-c2cc(-c3cn[nH]c3)c3cncn3c2)cc1
→ ?, -14%[138 µM], 0%[87.6 µM], 15%[87.6 µM], -20%[172 µM], 5%[88.5 µM]
> CN(C)CCCC(=O)N1CCC(n2c(=O)[nH]c3ccccc32)CC1
→ -24%[172 µM], 3%[138 µM], -10%[87.6 µM], -5%[87.6 µM], nt, i
> COc1ccc(N2C(=O)C(CC(=O)Nc3ccc(F)cc3)N(Cc3ccc4c(c3)OCO4)C2=O)cc1 (centres undefined)
→ nt, nt, 8%, -11%, nt, nt

Exported tab-delimited: part of the list above.
SMILES	HEK cytotox	NIH3T3 tox	HEK293 viab	SNCA expr inh	FLuc inh	GPT2 inh
CCN(CC)C(=O)C1=CC(c2ccc3c(c2)OCO3)=NS(=O)(=O)N1C	nt	nt	-11%	11%	nt	nt
Cc1cc(-n2c(SCc3ccccc3F)nc3[nH]ncc3c2=O)ccc1Cl	nt	nt	-15%	173%[activator]	nt	nt
CCOc1ccc(NC(=O)CCSc2nc(-c3ccc4c(c3)OCO4)cc(C(F)(F)F)n2)cc1	nt	nt	5%	14%	nt	nt
COc1ccccc1-c1[nH]nc2ncc(-c3cccc(CO)c3)nc12	?	?	-4%[87.6 µM]	40%[activator][87.6 µM]	?	2%[88.5 µM]
O=C(NCc1ccc2c(c1)OCO2)c1nc(-c2cc(Cl)cc(Cl)c2)c2ccccn12	-4%	3%	2%	24%	3%	i

Going on with the list.
Every second line gives: HEK cytotox, NIH3T3 tox, HEK293 viab, SNCA expr inh, FLuc inh, GPT2 inh
> Cc1cccc2nc(CNC(=O)c3cccc(C4CCNC4)c3)cn12 (centres undefined)
→ -2%, 0%, -3%, 40%[activator], -6%, -7%
> COc1ccc(-c2cc(C(F)(F)F)nc(NCc3ccccc3)n2)cc1OC
→ nt, nt, 16%, 23%, nt, nt
> O=C(O)c1cccc(-c2cccc(C(F)(F)F)c2)c1
→ i, -2%[138 µM], 3%[87.6 µM], 38%[activator][87.6 µM], nt, -11%[88.5 µM]
> COc1ccc(NC(=O)CCSc2nc(-c3ccc(OC)cc3)cc(C(F)(F)F)n2)cc1
→ nt, nt, 9%, 12%, nt, nt
> Cc1nn(C)c2c1c(C(F)(F)F)cc(=O)n2C(C)C(=O)N1CCN(c2ccccc2)CC1 (centres undefined)
→ nt, nt, -3%, 23%, nt, nt

High-throughput results from PubChem.

Some of the compounds tested; count on the stated rates, not on these rows.
